Assay outcomes: PubChem, National Center for Advancing Translational Sciences (NCATS)
GLA inh pH 4.5 = qHTS Assay for Inhibitors of Human alpha-Galactosidase at pH 4.5 | Alpha-galactosidase A (Homo sapiens), P06280 | purified enzyme, 4-MU-alpha-Gal fluorescence, pH 4.5 | activity change, negative = inhibition, % at 105 µM | 230,000 tested, under 10 active | AID 1467, 2008; inconclusive = small, poorly fitted or top-dose-only inhibition, or a rising curve; inactive = flat fitted curve, though single readings scatter; no compound was filed as active;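 note: 0% = full activity with enzyme and -100% = basal without enzyme; dose as in the result columns while the protocol names 77 µM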
miR-21 FLuc = qHTS Assay for Modulators of miRNAs and/orActivators of miR-21; 340,000 tested, under 10 active; Potency, µM (titrated, usually from 38.3 µM), for inactives: top-dose reporter change, positive = more light; HeLa miR-21 FLuc reporter, luciferase, 48 h; AID 2288, 2010; active = well fitted rising curve with a large enough effect; inconclusive = small, poorly fitted or top-dose-only effect; inactive = no such curve, though single readings can be large or run the other way;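 note: % of control where 0% means no effect; miR-21 action dims this reporter so a rising signal means less miR-21 action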
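HeLa cells stably expressing CMV-driven firefly luciferase with a downstream miR-21 binding sequence, endogenously expressing miR-21, were treated with titrations (up to about 40uM final) for 48 hours at 37 degree Celsius. Luciferase luminescence was read after lysis.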
Rango dissoc inh = qHTS Assay for Inhibitors of RanGTP induced Rango (Ran-regulated importin-beta cargo) - Importin beta complex dissociation; Snurportin-1 (Homo sapiens) + GTP-binding nuclear protein Ran (Homo sapiens) + Importin …; Biochemical FRET Rango-importin beta, RanGTP-induced dissociation; Potency, µM (highest dose often 46.1 µM), for inactives: top-dose activity change, negative = inhibition; 340,000 compounds, 0.071% hits; AID 540253, 2011; active means falling FRET ratio curve, often poorly fitted, with flat reads before Ran was added; inconclusive means other falling curves, or compound fluorescence or quenching; inactive means flat or rising ratio curve;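 note: potency is the fitted concentration of half-maximal effect; % of control where 0% means no effect; nearly all actives have a fitted effect of over 45% in size; -100% = wells without RanGTP and RCC1; the record marks most hits as doubtful in a second field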
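Rango (0.1 uM)–importin beta (0.25 uM) complex; RanGTP-RCC1 trigger; 45 min RT; CFP/YFP FRET read.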
Rango complex inh = qHTS Assay for Inhibitors of Rango (Ran-regulated importin-beta cargo) - Importin beta complex formation. Importin subunit beta-1 (Homo sapiens), Q14974. Rango CFP/YFP FRET sensor + importin beta, 45 min. Potency, µM (top dose mostly 92.2 µM), for the others: at the top dose inhibition of complex formation. 340,000 compounds, 0.031% hits. AID 540263, 2011; active = rising FRET ratio curve, often small or poorly fitted; inconclusive = mostly compound fluorescence or quenching in the first reads; inactive = flat curves in all reads;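 note: potency is the fitted concentration of half-maximal effect; 0% = DMSO wells and 100% = buffer wells lacking importin beta; nearly all actives have a fitted effect of over 15% in size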
Target sequence (Q14974 whole entry, looked up): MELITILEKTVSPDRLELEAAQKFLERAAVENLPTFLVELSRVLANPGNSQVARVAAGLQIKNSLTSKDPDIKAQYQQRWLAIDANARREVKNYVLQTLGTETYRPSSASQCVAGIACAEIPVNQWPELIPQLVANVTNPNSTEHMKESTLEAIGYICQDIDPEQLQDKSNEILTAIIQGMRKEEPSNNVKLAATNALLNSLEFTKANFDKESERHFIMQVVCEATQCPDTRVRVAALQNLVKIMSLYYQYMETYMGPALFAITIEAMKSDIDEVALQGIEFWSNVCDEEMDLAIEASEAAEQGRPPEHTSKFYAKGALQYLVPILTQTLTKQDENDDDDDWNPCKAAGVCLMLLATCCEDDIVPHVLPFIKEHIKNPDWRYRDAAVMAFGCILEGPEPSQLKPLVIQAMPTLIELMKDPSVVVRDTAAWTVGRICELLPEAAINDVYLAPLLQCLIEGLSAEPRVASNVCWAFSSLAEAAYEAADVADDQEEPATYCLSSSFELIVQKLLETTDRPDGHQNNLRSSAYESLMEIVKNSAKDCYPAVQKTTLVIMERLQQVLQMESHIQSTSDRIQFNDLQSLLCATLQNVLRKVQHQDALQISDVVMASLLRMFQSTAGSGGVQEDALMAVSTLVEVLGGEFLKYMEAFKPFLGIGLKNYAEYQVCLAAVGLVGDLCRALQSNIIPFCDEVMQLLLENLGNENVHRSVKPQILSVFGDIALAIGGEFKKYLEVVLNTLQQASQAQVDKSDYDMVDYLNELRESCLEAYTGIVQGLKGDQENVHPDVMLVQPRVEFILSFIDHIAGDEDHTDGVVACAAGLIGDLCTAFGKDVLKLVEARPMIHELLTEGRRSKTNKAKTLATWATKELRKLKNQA
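FRET biosensor Rango (snurportin 1 IBB between N-terminal EYFP and C-terminal Cerulean), 50 nM in PBS/1 mM DTT/0.02% Tween-20/0.1% BSA, preincubated 5 min RT with compound; 0.125 microM importin beta added, 45 min RT, CFP/YFP FRET ratio read.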
* hit, by the source's call; ? = inconclusive; · = no result given; [ ] = another dose, or the depositor's remark.

GLA inh pH 4.5	miR-21 FLuc	Rango dissoc inh	Rango complex inh	smiles
3	-7%	-1%	?	Cn1c(SCC2CCCO2)nnc1-c1ccc([N+](=O)[O-])cc1 (stereo not drawn)
·	-28%	4%	-1.6%	Cc1cccc(NC(=O)N2CCCc3ccccc32)c1C
4	12%	1%	3.1%	Cc1cc(SCC(=O)Nc2ncc(Cl)cc2Cl)nc2ccccc12
·	·	0%	8.1%	Cc1ccc(NC(=O)CN(C)C(=O)Cc2coc3cc(C)c(C)cc23)cc1
6	-10%	2%	-0.7%	COCCn1c(N)c(C(=S)NC(=O)c2cccs2)c(=O)[nH]c1=O
2	-29%	-5%	2.0%	CN(C)c1ccc(NC(=O)N2CCOCC2)cc1
·	·	9%	0.3%	C=CC(=O)Oc1ccc(N2Cc3ccccc3C2=O)cc1
-12	-15%	?	?	COc1ccc(N2CCN(C(=O)c3ccc(Cn4c(=S)[nH]c5ccc(N6CCOCC6)cc5c4=O)cc3)CC2)cc1
3	-1%	-2%	4.9%	C=CCn1c(SCC(=O)NCCC2=CCCCC2)nc2ccc(Cl)cc2c1=O
·	·	1%	-2.8%	CC(=O)c1ccc(OCCCC(=O)Nc2cccc(S(=O)(=O)N3CCCCC3)c2)cc1
·	16%	-26%	0.6%	Cc1ccc(-c2ccc(=O)n(CCC(=O)N3CCN(c4cccc(C)c4)C(C)C3)n2)cc1 (stereo not drawn)
-13	-5%	-17%	0.3%	CCOc1ccc(C2C(C(=O)OC)=C(C)N=C3SCCC(=O)N32)cc1OCC (stereo not drawn)
0	-1%	24%	-2.4%	CC1Cc2cc(/C(O)=C3/C(=O)C(=O)N(CCN4CCOCC4)C3c3ccc(C(C)C)cc3)ccc2O1 (stereo not drawn)
-9	-4%	-7%	0.4%	COC(=O)C1=C(CSc2nncn2C)NC(=O)NC1c1ccc(F)cc1 (stereo not drawn)
·	·	-11%	-0.9%	COc1ccccc1C(=O)COC(=O)CNS(=O)(=O)c1ccc(C)c(C)c1
-10	-3%	-1%	-1.5%	COc1ccc(-c2c(C)n([O-])c3c([n+]2=O)CCCC3)c(OC)c1
8	-5%	5%	-1.7%	CCCOC(=O)Nc1ccc(S(=O)(=O)Nn2cnnc2)cc1
·	·	-6%	-1.0%	CN(C)/C(=C\C(=O)c1ccccc1)C(=O)c1ccccc1
-1	14%	11%	-0.1%	COc1ccc(NC(=O)c2cc(S(=O)(=O)Nc3ccc(OC)cc3)cs2)cc1
·	·	13%	-1.1%	COc1ccccc1C(=O)COC(=O)C(CCSC)NC(=O)COc1ccccc1 (stereo not drawn)
0	-17%	1%	3.8%	CCCCCCC(=O)Nc1nc(C)c(-c2csc(Nc3cc(OC)ccc3OC)n2)s1
-7	-6%	-3%	-0.2%	COC(=O)c1ccsc1NC(=O)CSc1nnnn1-c1ccccc1SC
-5	-2%	0%	-0.7%	Cc1cccc(NC(=O)c2ccco2)c1C(=O)O
-8	4%	-2%	1.6%	COc1ccc(-c2nnc3n(CCc4ccccc4)c(=O)c4ccccc4n23)cc1OC
4	18%	-4%	4.3%	CC(C)(C)C(=O)NC(=S)NNC(=O)c1ccc(-c2ccccc2)cc1

Arranged by value in GLA inh pH 4.5 (high to low): some entries from above.
GLA inh pH 4.5	miR-21 FLuc	Rango dissoc inh	Rango complex inh	smiles
4	18%	-4%	4.3%	CC(C)(C)C(=O)NC(=S)NNC(=O)c1ccc(-c2ccccc2)cc1
-7	-6%	-3%	-0.2%	COC(=O)c1ccsc1NC(=O)CSc1nnnn1-c1ccccc1SC
-9	-4%	-7%	0.4%	COC(=O)C1=C(CSc2nncn2C)NC(=O)NC1c1ccc(F)cc1 (stereo not drawn)

Next section.
GLA inh pH 4.5	miR-21 FLuc	Rango dissoc inh	Rango complex inh	smiles
·	1%	10%	-0.9%	CC(=O)Nc1ccc(S(=O)(=O)NNC(=O)c2cccc([N+](=O)[O-])c2)cc1
-6	-15%	-6%	5.9%	Cc1ccc(/C=C2\S/C(=N/S(=O)(=O)c3cccs3)NC2=O)cc1
-16	7%	0%	0.6%	CC(C)CCNC(=O)CN(C(=O)Cn1nnc(-c2ccccc2F)n1)c1cccc2c1CCCC2
4	-68%	-9%	?	NC(=O)c1sc2nc(-c3cccnc3)ccc2c1N
1	-6%	-6%	0.0%	Cc1ccc(NC(=O)CN2C(=O)CSC2=O)cc1
-6	2%	8%	-3.0%	COCCCNC(=S)N1CCN(c2ccccc2)CC1
10	-48%	-3%	1.8%	O=C1c2ccccc2S(=O)(=O)N1CC1CC(c2ccccc2)=NO1 (stereo not drawn)
4	-37%	4%	0.8%	COc1ccc2oc(=O)c(C(=O)N3CCN(c4ccccc4)CC3)cc2c1
·	1%	1%	-2.1%	COCCNC(=O)C(c1ccc(F)cc1)N(Cc1ccccc1)C(=O)CCC(=O)Nc1nccs1 (stereo not drawn)
6	-9%	3%	4.7%	O=C(O)c1cccc(COCC(F)(F)C(F)F)c1
·	-10%	13%	0.7%	CC1CCCN(CCCNC(=O)c2ccc(NC(=O)C3=CSCCO3)cc2)C1 (stereo not drawn)
·	·	-4%	-0.1%	CCOC(=O)[C@H]1[C@H]2COc3ccc(Br)cc3[C@@H]2N2C(=O)CN(Cc3ccc(F)cc3)C(=O)[C@@]12C
-6	-21%	5%	0.5%	COCC1CCCCN1Cc1cn[nH]c1-c1ccc2cc(OC)ccc2c1 (stereo not drawn)
-3	-12%	22%	2.2%	O=C(NC(=S)N(Cc1ccccc1)c1ccccn1)C1CCCCC1
1	3%	-14%	-1.7%	Cc1cccc[n+]1C1C(c2ccc([N+](=O)[O-])cc2)C(C#N)=C(C(=C=[N-])C#N)NC1(O)C1CC1 (stereo not drawn)
-2	-32%	-7%	-8.0%	CC1(C)Cc2nc3sc(C(=O)NCCCO)c(N)c3cc2CO1
·	1%	-1%	-3.6%	COc1cc(CN2CCc3c([nH]c4ccccc34)C2)cc(OC)c1
-2	3%	-16%	?	Cc1cc2ccccc2n1CCNC(=O)Cc1cccc2ccccc12
0	0%	10%	-5.0%	CCCCn1c(=O)[nH]c(=O)c2c1nc(-c1ccc(OCCC)c(OCC)c1)n2C
2	-2%	-3%	-0.2%	N#CCCn1c(SCC(=O)N2CCN(S(=O)(=O)c3ccccc3)CC2)nc2ccccc21
-3	-6%	7%	?	Cc1oc(-c2cccs2)nc1CN1CCN(CCC(C)C)C(CCO)C1 (stereo not drawn)
·	-26%	-7%	1.5%	COC(=O)c1sccc1NC(=O)c1ccc(C(C)C)cc1
·	·	9%	4.1%	CCOC(=O)C1=C(COC(=O)[C@H](C)NS(=O)(=O)c2ccccc2F)NC(=O)NC1C (stereo partly drawn)
-20	-1%	4%	-0.8%	COc1ccc(C(O)P(=O)(OCc2ccccc2)c2ccc(N(C)C)cc2)cc1 (stereo not drawn)
4	6%	1%	-3.0%	Cc1[nH]c2ccccc2c1C(C[N+](=O)[O-])c1cccc(O)c1 (stereo not drawn)

(next part)
GLA inh pH 4.5	miR-21 FLuc	Rango dissoc inh	Rango complex inh	smiles
·	·	2%	3.9%	CC(C)(C)NC(=O)C[C@H]1C[C@H](C(=O)N2CCOCC2)[C@@]2(C)c3[nH]c4ccc(Cl)cc4c3CCN2C1=O
·	·	12%	9.5%	Cc1ccccc1CN1[C@@H](Cc2ccccc2)COCCS1(=O)=O
·	-1%	-12%	-0.4%	O=C(CCn1c(=S)[nH]c2ccccc2c1=O)N1CCCCC1
-3	1%	-2%	-1.2%	O=C(NCc1ccc2c(c1)OCO2)C1CCN(Cc2cnn(-c3ccccc3)c2-n2cccc2)CC1
1[21.1 µM]	-24%	-5%	2.3%	O=c1c2[nH]c3ccc(F)cc3c2nc2n1CCCS2
11	-39%	-7%	5.9%	Cc1ccc(-c2nnc(N(C)C(=O)c3cccnc3)s2)cc1
·	-18%	1%	4.0%	O=C(O)/C=C/c1cn(-c2ccccc2)nc1-c1ccccc1
-6	1%	?	?	COc1ccc(/C=C2\Oc3cc(OC(=O)N4CCOCC4)ccc3C2=O)cc1
9	-8%	1%	1.5%	O=C(CSc1nnnn1C1CCCC1)N1CCN(C(=O)c2ccco2)CC1
·	-32%	-7%	2.5%	COCCSc1nnc(NC(=O)c2ccco2)s1
-18	-1%	?	?	C=CCn1c(=O)/c(=C/c2cc(OC)c(OC)c(OC)c2)s/c1=C(/C#N)c1nc2ccccc2n1C
-4	4%	-6%	?	C/C(=N\NC(=O)c1cc(-c2cccc([N+](=O)[O-])c2)n[nH]1)c1ccccc1O
6	-5%	-3%	?	CN1CCN(C(=O)C23CC4CC(C)(CC(C)(C4)C2)C3)CC1
-1	-1%	?	-3.1%	COc1cc(/C=N\NC(=O)c2ccc(C)nc2)ccc1OC(=O)c1ccc2c(c1)OCO2
-12	-4%	6%	2.6%	CC(=O)Nc1c(O)nc(C)[nH]c1=O
-8	-5%	-11%	-3.1%	CC(C)OCCCNC(=O)Cc1ccc(F)cc1
·	·	-11%	0.4%	O=C(/C=C/c1cccc(Cl)c1)c1ccc([N+](=O)[O-])o1
·	·	1%	-2.5%	CCC(C)c1ccccc1N1CC(C(=O)Nc2cc(S(=O)(=O)N3CCOCC3)ccc2OC)CC1=O (stereo not drawn)
5	18%	8%	-1.9%	O=C(CC(c1ccccc1)c1ccccc1)Nc1ccncc1
-3	-2%	12%	-0.5%	O=S(=O)(c1ccc(Cl)cc1)N1CCNCC1
-3	-16%	26%	0.9%	COc1ccc(-n2c(SCC#N)nnc2-c2ccc(NS(=O)(=O)c3ccc(C)cc3)cc2)cc1
·	·	6%	-0.7%	O=C(NCc1ccncc1)c1cc(S(=O)(=O)N2CCOCC2)c(Cl)cc1Cl
-8	-63%	0%	1.5%	CCOc1ccc2nc(SCC(=O)c3cccs3)sc2c1
·	-39%	-6%	-0.4%	O=[N+]([O-])c1ccc(N2CCN(c3ccccn3)CC2)c(Cl)c1
·	·	-5%	-3.4%	CCc1ccccc1NC(=O)CNC(=O)c1ccc(OCc2cn3ccccc3n2)cc1

Next section
GLA inh pH 4.5	miR-21 FLuc	Rango dissoc inh	Rango complex inh	smiles
·	1%	43%	?	CCN1CCN(CCCNC(=O)CCC(=O)N2CC(C)Oc3ccc(C)cc32)CC1 (stereo not drawn)
·	·	0%	1.1%	CCCNC(=O)C(Cc1ccc(I)cc1)NC(=O)C1CC1 (stereo not drawn)
-15	-65%	32%	-3.7%	CC(=O)OCC(=O)Nc1ccc(N=Nc2ccccc2)cc1
8	0%	25%	-1.0%	Nc1cc(S(=O)(=O)C(F)(F)F)ccc1C(=O)O
·	5%	-20%	0.7%	COc1cc(NC(=O)CN2C(=O)CSc3ccc(S(=O)(=O)N4CCCC4)cc32)cc(OC)c1
·	·	-1%	4.7%	CCc1nnc2sc(-c3ccc(NC(=O)CSc4ccc(Cl)cc4)cc3)nn12
-5	-3%	2%	0.0%	COc1ccc(NC(=O)CN(C)S(=O)(=O)c2ccc(Cl)cc2)cc1Cl
·	-1%	?	?	Cc1ccc(C(=O)N2CCCC(Nc3ccc(C(C)C)cc3)C2)cn1 (stereo not drawn)
·	·	19%	1.0%	CC(C)CN(C(=O)c1cccc(S(=O)(=O)N2CCN(Cc3ccccc3)CC2)c1)C1CCS(=O)(=O)C1 (stereo not drawn)
-15	13%	16%	-2.4%	O=C(Nc1ccc(S(=O)(=O)N2CCCCC2c2cccnc2)cc1)c1ccccc1F (stereo not drawn)

Ordered by length of the SMILES (rising): part of the list above
GLA inh pH 4.5	miR-21 FLuc	Rango dissoc inh	Rango complex inh	smiles
8	0%	25%	-1.0%	Nc1cc(S(=O)(=O)C(F)(F)F)ccc1C(=O)O
·	·	-1%	4.7%	CCc1nnc2sc(-c3ccc(NC(=O)CSc4ccc(Cl)cc4)cc3)nn12
·	5%	-20%	0.7%	COc1cc(NC(=O)CN2C(=O)CSc3ccc(S(=O)(=O)N4CCCC4)cc32)cc(OC)c1

Some of the compounds tested, so the mix of outcomes need not match the whole.
